Assay outcomes from PubChem.
A1 apoptosis 2 = blocks A1, raising caspase activity; 24,000 tested, under 10 active; caspase activation, % (test concentration not listed); AID 2465; MEF A1-2A-BIM cells, caspase-Glo luminescence, 3 h; percent of clofoctol response, DMSO zero; in the data active = caspase activation above about 5.9%;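 note: wells of about 30 µL received 50 nL stock; the first replicate is given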
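Test system – A1-2A-BIM-expressing MEF cells · Input – 2500 cells/well · Medium – RPMI-1640 growth medium with 10% FBS · Compound dosing – 50 nL pinned compound · Timing – 3 h compound exposure at 37 °C · Technique – Caspase-Glo luminescence (DEVD substrate) · Evaluation – Caspase-3/7 activity from luminescence increase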
Starred values were filed as active, the others as inactive. Not all compounds are listed (hit frequency here may not be typical).

SMILES | A1 apoptosis 2
C[C@@H]1CN([C@H](C)CO)C(=O)c2cc(NS(C)(=O)=O)ccc2O[C@H]1CN(C)Cc1ccccc1 | 2.1
C[C@H]1CN([C@@H](C)CO)C(=O)c2cc(NS(=O)(=O)c3cn(C)cn3)ccc2O[C@@H]1CN(C)Cc1ccccc1 | 0.7
Cc1noc(C)c1NC(=O)N(C)C[C@@H]1Oc2ccc(NC(=O)Nc3ccc(F)cc3)cc2CC(=O)N([C@@H](C)CO)C[C@H]1C | 0.0
C[C@@H]1CN([C@H](C)CO)C(=O)c2cccc(NC(=O)Nc3ccc(F)cc3)c2O[C@H]1CN(C)C(=O)Nc1ccc(F)cc1 | -0.7
CNC[C@H]1OCc2cn(nn2)CCCC(=O)N([C@H](C)CO)C[C@H]1C | -0.5
Cc1ccc(S(=O)(=O)N(C)C[C@@H]2OCCCC[C@H](C)Oc3ccc(NC(=O)Nc4c(C)noc4C)cc3C(=O)N([C@H](C)CO)C[C@@H]2C)cc1 | -1.6
CNC[C@H]1OCCCC[C@H](C)Oc2ccc(NC(=O)c3ccccc3)cc2C(=O)N([C@H](C)CO)C[C@H]1C | -0.4
O=C(CCCCCCC(=O)N/N=C/c1ccccn1)NO | 1.1
Cc1noc(C)c1NC(=O)Nc1ccc2c(c1)CC(=O)N([C@H](C)CO)C[C@@H](C)[C@@H](CN(C)S(=O)(=O)c1cccs1)O2 | 2.8
C[C@@H]1CN([C@H](C)CO)C(=O)c2cc(NC(=O)Nc3ccccc3)ccc2O[C@@H](C)CCCCO[C@H]1CN(C)C | 0.5
C[C@H](CO)N1C[C@H](C)[C@H](CN(C)C(=O)Cc2ccccc2)OCCCC[C@H](C)Oc2ccc(NC(=O)C3CCCCC3)cc2C1=O | 0.7
C[C@H]1CN([C@@H](C)CO)C(=O)c2cccc(NS(=O)(=O)c3ccccc3)c2O[C@@H]1CN(C)Cc1ccccc1 | 0.2
C[C@H](CO)N1C[C@H](C)[C@H](CN(C)Cc2ccc(-c3ccccc3)cc2)Oc2c(NC(=O)c3ccc(-c4nccs4)cc3)cccc2C1=O | -0.8
C[C@H]1CN([C@@H](C)CO)C(=O)c2cccc(NC(=O)C3CCOCC3)c2O[C@H]1CN(C)C(=O)NC1CCCCC1 | -0.8
C[C@@H]1CCCCO[C@H](CN(C)S(=O)(=O)c2ccccc2)[C@@H](C)CN([C@@H](C)CO)C(=O)c2cc(NC(=O)Nc3ccccc3)ccc2O1 | -0.3
Cc1noc(C)c1S(=O)(=O)Nc1ccc2c(c1)C(=O)N([C@@H](C)CO)C[C@H](C)[C@@H](CN(C)CC1CCCCC1)OCCCC[C@@H](C)O2 | -0.4
C[C@H]1CN([C@@H](C)CO)C(=O)CCCn2cc(nn2)CO[C@H]1CN(C)Cc1ccc2cccnc2c1 | -0.8
C[C@@H]1CCCCO[C@@H](CN(C)C(=O)Nc2ccccc2)[C@H](C)CN([C@H](C)CO)C(=O)c2cc(NC(=O)CCC(F)(F)F)ccc2O1 | -0.1
C[C@H]1CN([C@@H](C)CO)C(=O)c2cccc(NC(=O)c3ccncc3)c2O[C@H]1CN(C)C(=O)Nc1cccc2ccccc12 | 0.2
C[C@@H]1CN([C@H](C)CO)C(=O)Cc2cc(NC(=O)CCCN(C)C)ccc2O[C@@H]1CN(C)S(=O)(=O)c1ccc(Cl)cc1 | -0.1
C[C@@H]1CCCCO[C@@H](CN(C)Cc2ccncc2)[C@@H](C)CN([C@@H](C)CO)C(=O)c2cc(N(C)C)ccc2O1 | 0.3
COc1ccc(S(=O)(=O)N(C)C[C@@H]2Oc3c(NC(=O)Nc4cccc5ccccc45)cccc3C(=O)N([C@H](C)CO)C[C@H]2C)cc1 | -0.4
C[C@H]1CN([C@@H](C)CO)C(=O)c2cccc(NS(=O)(=O)c3ccccc3)c2O[C@H]1CN(C)C(=O)Nc1cccc2ccccc12 | -0.8
COC(=O)N(C)C[C@H]1OCc2cn(nn2)CCCC(=O)N([C@H](C)CO)C[C@@H]1C | -0.6
C[C@@H]1CN([C@@H](C)CO)C(=O)Cc2cc(NC(=O)Nc3ccc(C(F)(F)F)cc3)ccc2O[C@@H]1CN(C)C(=O)Nc1ccc(C(F)(F)F)cc1 | 1.0
(continued)
SMILES | A1 apoptosis 2
C[C@@H]1CN([C@@H](C)CO)C(=O)CCCn2nncc2CO[C@H]1CN(C)Cc1ccc(C(=O)O)cc1 | 0.2
C[C@H](CO)N1C[C@H](C)[C@H](CN(C)S(=O)(=O)c2ccccc2)Oc2c(NS(=O)(=O)c3ccccc3)cccc2C1=O | 1.4
C[C@@H]1CN([C@H](C)CO)C(=O)c2cccc(NC(=O)Nc3ccccc3)c2O[C@@H]1CN(C)C(=O)Nc1ccc2c(c1)OCO2 | -0.1
CNC[C@H]1Oc2ccc(NS(=O)(=O)c3ccc(F)cc3)cc2CC(=O)N([C@H](C)CO)C[C@H]1C | -0.1
C[C@H]1CN([C@@H](C)CO)C(=O)c2cc(NS(=O)(=O)c3cn(C)cn3)ccc2O[C@H]1CN(C)S(=O)(=O)c1ccc(F)cc1 | -0.3
C[C@H](CO)N1C[C@H](C)[C@@H](CN(C)Cc2ccncc2)Oc2ccc(NC(=O)Nc3ccc(C(F)(F)F)cc3)cc2C1=O | -0.6
C[C@H]1CCCCO[C@H](CN(C)S(=O)(=O)c2ccc(F)cc2)[C@@H](C)CN([C@@H](C)CO)C(=O)c2cc(NC(=O)NC3CCCCC3)ccc2O1 | -0.7
CC(C)OC(=O)N(C)C[C@@H]1OCc2cn(nn2)CCCC(=O)N([C@H](C)CO)C[C@H]1C | -0.4
Cc1noc(C)c1NC(=O)Nc1ccc2c(c1)C(=O)N([C@H](C)CO)C[C@H](C)[C@H](CN(C)S(=O)(=O)c1cn(C)cn1)OCCCC[C@H](C)O2 | -0.2
C[C@H](CO)N1C[C@H](C)[C@H](CN(C)CC2CCCCC2)OCCCC[C@H](C)Oc2ccc(NC(=O)CCC(F)(F)F)cc2C1=O | 0.1
C[C@H]1CN([C@@H](C)CO)C(=O)c2cc(NC(=O)CCC(F)(F)F)ccc2O[C@H]1CN(C)CC1CC1 | 0.4
COc1ccc(S(=O)(=O)Nc2ccc3c(c2)C(=O)N([C@@H](C)CO)C[C@@H](C)[C@H](CN(C)S(=O)(=O)c2ccc(C)cc2)OCCCC[C@@H](C)O3)cc1 | -1.0
C[C@H](CO)N1C[C@H](C)[C@H](CN(C)C(=O)Nc2cccc3ccccc23)Oc2c(NS(C)(=O)=O)cccc2C1=O | 0.3
C[C@H](CO)N1C[C@H](C)[C@H](CN(C)C)Oc2ccc(NS(=O)(=O)c3cn(C)cn3)cc2C1=O | -0.7
Cc1noc(C)c1NC(=O)Nc1ccc2c(c1)CC(=O)N([C@H](C)CO)C[C@H](C)[C@@H](CN(C)Cc1ccccc1)O2 | -0.2
C[C@H]1CN([C@@H](C)CO)C(=O)Cc2cc(NC(=O)Nc3cccc4ccccc34)ccc2O[C@@H]1CN(C)C(=O)Nc1ccc(F)cc1 | -0.7
C[C@H](CO)N1C[C@H](C)[C@H](CN(C)S(=O)(=O)c2ccc(C#N)cc2)Oc2ncc(-c3cc4ccccc4o3)cc2C1=O | 0.6
C[C@H](CO)N1C[C@H](C)[C@H](CN(C)Cc2ccc(-c3ccccc3)cc2)Oc2ccc(NC(=O)CCCCCC(=O)Nc3ccccc3N)cc2C1=O | 0.1
CC(C)NC(=O)N(C)C[C@@H]1OCCCC[C@H](C)Oc2ccc(N(C)C)cc2C(=O)N([C@H](C)CO)C[C@@H]1C | 0.8
C[C@@H]1CN([C@H](C)CO)C(=O)c2cc(NS(=O)(=O)c3cccs3)ccc2O[C@@H](C)CCCCO[C@H]1CN(C)CC1CC1 | 0.3
C[C@H](CO)N1C[C@H](C)[C@@H](CN(C)C(=O)Nc2ccc(C(F)(F)F)cc2)Oc2ccc(NC(=O)Nc3cccc4ccccc34)cc2CC1=O | -0.7
Cc1noc(C)c1NC(=O)N(C)C[C@H]1Oc2ccc(NC(=O)Nc3ccc(C(F)(F)F)cc3)cc2C(=O)N([C@H](C)CO)C[C@H]1C | -1.2
C[C@H](CO)N1C[C@H](C)[C@@H](CN(C)Cc2ccc3c(c2)OCO3)Oc2c(NC(=O)c3ccc(-c4nccs4)cc3)cccc2C1=O | -0.3
C[C@H](CO)N1C[C@H](C)[C@@H](CN(C)CC2CC2)OCCCC[C@H](C)Oc2ccc(NC(=O)NC3CCCCC3)cc2C1=O | -0.5
C[C@@H]1CN([C@H](C)CO)C(=O)c2cc(NS(=O)(=O)c3cccs3)ccc2O[C@@H](C)CCCCO[C@@H]1CN(C)C(=O)Cc1ccccc1 | 1.2
More results follow:
SMILES | A1 apoptosis 2
O=C(N1CCOCC1)[C@]1(Cc2ccccc2)N=C(c2ccc(OCCCO)cc2)O[C@@H]1c1ccccc1 | 0.7
C[C@@H]1CN([C@@H](C)CO)C(=O)c2cc(NC(=O)c3ccccc3)ccc2O[C@@H](C)CCCCO[C@H]1CN(C)S(=O)(=O)c1cn(C)cn1 | -1.0
C[C@@H]1CN([C@@H](C)CO)C(=O)c2cc(NC(=O)Nc3ccc(F)cc3)ccc2O[C@@H]1CN(C)S(=O)(=O)c1ccc(Cl)cc1 | 1.7
COc1ccc(CN(C)C[C@@H]2OCCCC[C@H](C)Oc3ccc(NS(=O)(=O)c4ccccc4)cc3C(=O)N([C@@H](C)CO)C[C@@H]2C)cc1 | 0.0
C[C@@H]1CN([C@@H](C)CO)C(=O)c2cc(NC(=O)CCCN(C)C)ccc2O[C@@H](C)CCCCO[C@@H]1CN(C)Cc1ccncc1 | 0.1
C[C@@H]1CN([C@H](C)CO)C(=O)c2cccc(NS(=O)(=O)c3cn(C)cn3)c2O[C@@H]1CN(C)CC1CCCCC1 | 1.0
C[C@@H]1CN([C@H](C)CO)C(=O)c2cc(NC(=O)Nc3ccc(C(F)(F)F)cc3)ccc2O[C@@H]1CN(C)Cc1ccncc1 | 0.8
C[C@@H]1CCCCO[C@@H](CN(C)S(C)(=O)=O)[C@H](C)CN([C@@H](C)CO)C(=O)c2cc(NC(=O)c3ccncc3)ccc2O1 | -0.8
Cc1ccccc1S(=O)(=O)N(C)C[C@H]1OCc2cnnn2CCCC(=O)N([C@H](C)CO)C[C@H]1C | 0.8
C[C@@H]1CN([C@H](C)CO)C(=O)c2cc(NC(=O)C3CCCCC3)ccc2O[C@@H]1CN(C)Cc1ccncc1 | -1.3
C[C@@H]1CN([C@H](C)CO)C(=O)c2cccc(NC(=O)C3CCOCC3)c2O[C@H]1CN(C)Cc1ccc2c(c1)OCO2 | 0.0
Cc1ccc(S(=O)(=O)Nc2ccc3c(c2)C(=O)N([C@@H](C)CO)C[C@H](C)[C@@H](CN(C)S(=O)(=O)c2ccc(Cl)cc2)OCCCC[C@@H](C)O3)cc1 | -1.8
O=C(CCCCCCC(=O)Nc1ccccc1O)N/N=C/c1ccc(Oc2ccccc2)cc1 | 0.5
C[C@@H]1CN([C@H](C)CO)C(=O)Cc2cc(NC(=O)CCN3CCOCC3)ccc2O[C@H]1CN(C)S(C)(=O)=O | 0.3
C[C@@H]1CN([C@@H](C)CO)C(=O)Cc2cc(NS(=O)(=O)c3ccc(F)cc3)ccc2O[C@H]1CN(C)Cc1ccccc1 | -0.5
Cc1noc(C)c1S(=O)(=O)Nc1ccc2c(c1)C(=O)N([C@H](C)CO)C[C@@H](C)[C@@H](CN(C)Cc1ccc(C(F)(F)F)cc1)OCCCC[C@H](C)O2 | -1.3
COc1ccc(S(=O)(=O)Nc2ccc3c(c2)CC(=O)N([C@H](C)CO)C[C@@H](C)[C@H](CN(C)CC2CCCCC2)O3)cc1 | -1.2
C[C@H]1CN([C@@H](C)CO)C(=O)Cc2cc(NS(=O)(=O)c3ccc(Cl)cc3)ccc2O[C@@H]1CN(C)CC1CCCCC1 | -0.1
Cc1noc(C)c1S(=O)(=O)Nc1ccc2c(c1)C(=O)N([C@@H](C)CO)C[C@@H](C)[C@H](CN(C)C)OCCCC[C@H](C)O2 | -1.0
COc1ccc([Si](C)(C)[C@@H]2[C@@H](CCO)O[C@]3(C(=O)N(Cc4ccccc4)c4ccc(NC(C)=O)cc43)[C@H]2C)cc1 | -0.8
Cc1noc(C)c1NC(=O)Nc1ccc2c(c1)C(=O)N([C@H](C)CO)C[C@H](C)[C@H](CN(C)Cc1ccncc1)OCCCC[C@H](C)O2 | 1.0

Some of the entries above in a different format:
molecule,A1 apoptosis 2
C[C@@H]1CN([C@H](C)CO)C(=O)c2cccc(NC(=O)Nc3ccc(F)cc3)c2O[C@H]1CN(C)C(=O)Nc1ccc(F)cc1,-0.7
CNC[C@H]1OCc2cn(nn2)CCCC(=O)N([C@H](C)CO)C[C@H]1C,-0.5
Cc1ccc(S(=O)(=O)N(C)C[C@@H]2OCCCC[C@H](C)Oc3ccc(NC(=O)Nc4c(C)noc4C)cc3C(=O)N([C@H](C)CO)C[C@@H]2C)cc1,-1.6
CNC[C@H]1OCCCC[C@H](C)Oc2ccc(NC(=O)c3ccccc3)cc2C(=O)N([C@H](C)CO)C[C@H]1C,-0.4
O=C(CCCCCCC(=O)N/N=C/c1ccccn1)NO,1.1
Cc1noc(C)c1NC(=O)Nc1ccc2c(c1)CC(=O)N([C@H](C)CO)C[C@@H](C)[C@@H](CN(C)S(=O)(=O)c1cccs1)O2,2.8
C[C@@H]1CN([C@H](C)CO)C(=O)c2cc(NC(=O)Nc3ccccc3)ccc2O[C@@H](C)CCCCO[C@H]1CN(C)C,0.5
C[C@H](CO)N1C[C@H](C)[C@H](CN(C)C(=O)Cc2ccccc2)OCCCC[C@H](C)Oc2ccc(NC(=O)C3CCCCC3)cc2C1=O,0.7
C[C@H]1CN([C@@H](C)CO)C(=O)c2cccc(NS(=O)(=O)c3ccccc3)c2O[C@@H]1CN(C)Cc1ccccc1,0.2
C[C@H](CO)N1C[C@H](C)[C@H](CN(C)Cc2ccc(-c3ccccc3)cc2)Oc2c(NC(=O)c3ccc(-c4nccs4)cc3)cccc2C1=O,-0.8
